rRNA inh HTS: selective bacterial rRNA inhibition in E. coli. E. coli WT GFP vs humanized-ribosome RFP mutants, fluorescence, 24 h; hits give low values; DMSO median 0, no signal -100. GFP signal change (wild-type ribosome), % (test concentration not listed). 350,000 tested, 1.6% active. AID 720706;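 active means significant combined selectivity score with lowered wild-type GFP, culture density cut under 30%, mutant RFP and density less affected; inactive means any of these conditions unmet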; further: one replicate is shown; some compounds called inactive have numbers as strong as hits
FGF22 binding: shifts melting point of recombinant human FGF22; Q9HCT0; recombinant FGF22 thermal shift, SYPRO orange fluorescence; percent of sucrose octasulfate shift, DMSO zero; calls only at 9.99 µM; 340,000 tested, 1.5% active; AID 651658;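 active means melting point raised past a set limit in the mean and every replicate; three in four hits are not shown here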
Target sequence (Q9HCT0 whole entry, looked up): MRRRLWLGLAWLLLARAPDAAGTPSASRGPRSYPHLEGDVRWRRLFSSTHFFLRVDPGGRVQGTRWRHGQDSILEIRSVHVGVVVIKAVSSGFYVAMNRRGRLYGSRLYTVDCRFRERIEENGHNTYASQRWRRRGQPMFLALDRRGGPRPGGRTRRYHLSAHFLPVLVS
AF4-AF9 inh: MLL-AF4/AF9 protein interaction inhibition; P42568; 350,000 tested, 0.47% active; AlphaScreen, biotin-AF4 peptide binding to FLAG-AF9; inhibition, % at 10 µM;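 active means every replicate reaching a set inhibition limit, whatever the replicate mean, cut at about 25% in these data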;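 further: 0% = plate neutral control median and 100% = total signal loss; the record names both 10 and 1 µM as test concentration; the first replicate is given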
Target sequence (P42568 whole entry, looked up): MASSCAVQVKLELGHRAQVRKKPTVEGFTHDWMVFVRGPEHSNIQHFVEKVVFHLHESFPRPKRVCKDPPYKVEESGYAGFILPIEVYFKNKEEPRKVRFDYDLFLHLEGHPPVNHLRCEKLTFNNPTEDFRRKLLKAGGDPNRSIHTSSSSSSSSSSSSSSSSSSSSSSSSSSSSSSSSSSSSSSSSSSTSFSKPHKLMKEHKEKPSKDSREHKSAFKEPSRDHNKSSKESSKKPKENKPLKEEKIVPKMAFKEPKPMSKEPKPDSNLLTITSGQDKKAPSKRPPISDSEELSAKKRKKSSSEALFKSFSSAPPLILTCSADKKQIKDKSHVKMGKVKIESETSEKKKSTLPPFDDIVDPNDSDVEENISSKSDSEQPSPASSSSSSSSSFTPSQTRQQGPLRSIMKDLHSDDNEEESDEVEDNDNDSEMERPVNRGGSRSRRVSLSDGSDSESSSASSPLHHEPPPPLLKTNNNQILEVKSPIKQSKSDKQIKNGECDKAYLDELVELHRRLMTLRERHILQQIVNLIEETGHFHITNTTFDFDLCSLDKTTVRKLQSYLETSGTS
rRNA inh HTS OD600: second read-out of rRNA inh HTS, no call of its own (marks repeat the call); OD600 change, %; measured here: OD600 growth;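 optical density of the mix in the first replicate; 0 = DMSO median and -100 = no signal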
rRNA inh HTS RFP: second read-out of rRNA inh HTS, no call of its own (marks repeat the call); RFP signal change, %; measured here: RFP humanized mutant strains;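 first replicate; 0 = DMSO median and -100 = no signal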
* = called active by the depositor; i = inactive; . = not tested or not shown. The list is partial; rates above refer to the full screens.

| structure | rRNA inh HTS OD600 | AF4-AF9 inh | rRNA inh HTS RFP | rRNA inh HTS | FGF22 binding |
| --- | --- | --- | --- | --- | --- |
| COc1cccc(C(=O)Nc2ccc3c(c2)OC[C@H](C)NC[C@@H](C)[C@H](OC)CN(C)C3=O)c1 | -1 | -2.0 | 0.1 | 1 | i |
| Cc1noc(C)c1NC(=O)Nc1ccc2c(c1)C(=O)N([C@H](C)CO)C[C@@H](C)[C@H](CN(C)C(=O)Nc1ccccc1)OCCCC[C@@H](C)O2 | -1 | 0.8 | 3.4 | -1 | i |
| CN1C(=O)c2cc(NC(=O)c3cscn3)ccc2OC[C@@H]2O[C@H](CC(=O)NCc3ccc(Cl)c(Cl)c3)CC[C@H]21 | -23 | 0.5 | 0.6 | -9 | i |
| C[C@H]1CN([C@@H](C)CO)C(=O)c2cccc(NS(=O)(=O)c3cn(C)cn3)c2O[C@@H]1CN(C)CC1CC1 | 8 | -4.3 | -0.9 | 6 | i |
| CN(C)CCCNC(=O)C[C@@H]1CC[C@@H]2[C@@H](COc3ccc(NC(=O)c4ccccc4F)cc3C(=O)N2C)O1 | 4 | -1.3 | -1.7 | 3 | i |
| O=C(NCc1c(Cl)cccc1Cl)c1[nH]c(C(F)(F)F)nc1-c1ccccc1 | -69 | 0.0 | -20 | -52 | i |
| Cc1cc2oc(=O)cc(CN3CCCC3)c2cc1Cl | 1 | -2.7 | -2.3 | -2 | i |
| Cc1ccc([C@@H]2C[C@H]3[C@@H](CN2S(=O)(=O)c2ccc(Cl)cc2)C(=O)C[C@@H](c2ccc(C)cc2)N3S(=O)(=O)c2ccc(Cl)cc2)cc1 | 14 | 0.2 | 2.7 | 19 | i |
| CC(C)NC(=O)C1C(c2ccc(C(F)(F)F)cc2)=Nc2ccccc2N1C(=O)c1ccco1 (centres undefined) | -5 | 4.9 | 2.9 | -12 | i |
| COc1ccc(NC(=O)Nc2ccc3c(c2)CC(=O)N([C@@H](C)CO)C[C@@H](C)[C@H](CN(C)Cc2ccc4c(c2)OCO4)O3)cc1 | -14 | 18 | 8.3 | 5 | i |
| C[C@@H]1CN([C@@H](C)CO)C(=O)c2c(c3ccccc3n2C)-c2ccccc2CO[C@H]1CN(C)Cc1cccc(F)c1 | -14 | 4.8 | 7.7 | -4 | i |
| C[C@H]1CN([C@@H](C)CO)S(=O)(=O)c2ccc(C#CC3CC3)cc2O[C@H]1CN(C)Cc1cccc(F)c1 | -9 | 3.6 | 1.9 | 2 | i |
| C[C@@H]1CN([C@@H](C)CO)C(=O)Cc2cc(NC(=O)Cc3cn(C)c4ccccc34)ccc2O[C@@H]1CN(C)Cc1ccc(C(=O)Nc2ccccc2N)cc1 | -1 | 0.5 | -1.8 | -8 | i |
| C[C@@H]1CN([C@@H](C)CO)C(=O)c2cccc(NC(=O)Nc3ccc(C(F)(F)F)cc3)c2O[C@@H]1CN(C)C(=O)Nc1ccc(F)cc1 | 5 | 3.6 | -0.1 | -2 | i |
| CCOc1ccc(Oc2ccccc2NC(=O)CCc2nc3ccccc3c(=O)[nH]2)cc1 | 13 | -0.5 | 0.2 | 13 | i |
| CCOc1ccc(C(=O)CCC(=O)NN2CCCCC2)cc1 | 3 | -3.5 | -1.9 | 8 | i |
| C[C@@H](O)C#Cc1cnc2c(c1)C(=O)N([C@@H](C)CO)C[C@H](C)[C@@H](CN(C)C(=O)Cc1ccncc1)O2 | 10 | -1.0 | -1.7 | 0 | i |
| CCOC(=O)c1cc(-c2cccc(O)c2)oc1C | -71 | -2.4 | -7.6 | -41 | i |
| O=C(C1CCCCC1)N1C[C@@H](n2cc(-c3ccc(F)cc3)nn2)[C@H](O)C[C@@H]1c1ccccc1 | -28 | 1.8 | -9.5 | -11 | i |
| COc1cc(-c2noc(C)c2C(=O)N[C@@H](CO)Cc2ccccc2)cc(OC)c1OC | 8 | -6.6 | 3.9 | 14 | i |
| C[C@@H]1CCCCO[C@H](CN(C)S(=O)(=O)c2ccccc2)[C@@H](C)CN([C@@H](C)CO)C(=O)c2cc(NC(=O)Nc3ccc(F)cc3)ccc2O1 | 9 | 3.0 | -0.3 | 3 | i |
| O=C(CN1C(=O)c2cccc([N+](=O)[O-])c2C1=O)N1CCc2ccccc2C1 | 19 | 0.5 | -3.1 | 11 | i |
| CN(C)CCCNC(=O)c1ccc(/C=N/O)nc1 | 6 | -8.6 | 0.9 | 3 | i |
| COc1ccc(CN(C)C[C@@H]2OCCCC[C@@H](C)Oc3ccc(NC(=O)Nc4cccc5ccccc45)cc3C(=O)N([C@@H](C)CO)C[C@@H]2C)cc1 | 6 | 0.0 | 11 | -1 | i |
| C[C@H](NC(=O)C[C@H]1C=C[C@@H](NS(=O)(=O)c2cccc(F)c2)[C@@H](CO)O1)c1ccccc1 | 11 | -14 | 2.6 | 4 | i |

(more compounds)
| structure | rRNA inh HTS OD600 | AF4-AF9 inh | rRNA inh HTS RFP | rRNA inh HTS | FGF22 binding |
| --- | --- | --- | --- | --- | --- |
| Cc1ccc(-c2ccc3c(c2)O[C@@H](CN(C)Cc2ccc(F)cc2)[C@H](C)CN([C@@H](C)CO)S3(=O)=O)cc1 | 10 | -0.8 | -4.2 | -1 | i |
| C[C@@H]1CN([C@H](C)CO)C(=O)c2cccc(NC(=O)C3CCOCC3)c2O[C@@H]1CN(C)S(=O)(=O)c1cn(C)cn1 | 5 | -1.0 | -1.8 | -2 | i |
| Cc1cccc(CN2[C@@H](C)[C@H](c3ccccc3)Oc3cc(Br)ccc3S2(=O)=O)c1 | 11 | -0.4 | -4.7 | 11 | i |
| CC(C)NC(=O)N(C)C[C@H]1OCc2cnnn2CCCC(=O)N([C@@H](C)CO)C[C@@H]1C | 9 | -0.7 | -2.3 | 0 | i |
| O=C(Nc1nnc([C@@H]2O[C@H](CO)[C@@H](O)[C@H]2O)s1)Nc1cccc2c1CCCC2 | 10 | -7.6 | -1.6 | 4 | i |
| COc1ccc(NC(=O)N(C)C[C@@H]2Oc3c(NC(=O)Nc4c(C)noc4C)cccc3C(=O)N([C@H](C)CO)C[C@H]2C)cc1 | 0 | -2.7 | -2.0 | 0 | i |
| COc1cc(-c2cc(NC=O)c3ncc(-c4ccc(C(C)=O)cc4)n3c2)ccc1O | -2 | 2.7 | 4.3 | 3 | . |
| O=C(N[C@H]1CC[C@H](CCn2cc(C3(O)CCCC3)nn2)O[C@H]1CO)C1CCC1 | 2 | -1.5 | 2.5 | 1 | i |
| C[C@@H]1CN([C@H](C)CO)C(=O)Cc2cc(NC(=O)c3ccncc3)ccc2O[C@H]1CN(C)Cc1ccncc1 | 5 | -3.4 | -0.8 | 1 | i |
| CC1CNC(=S)N(c2ccc(F)cc2)C1=O (centres undefined) | 17 | -1.7 | -2.0 | 9 | i |
| CNC[C@H]1Oc2ccc(NC(=O)Cc3ccccc3)cc2C(=O)N([C@@H](C)CO)C[C@H]1C | 4 | -21 | 0.5 | 3 | i |
| CN1OC[C@@H]2CN(C(=O)NC3CCCCC3)[C@H](c3ccc(N4CCCCC4)cc3)C[C@@H]21 | -10 | 3.0 | -1.4 | -6 | i |
| CO[C@H]1CN(C)C(=O)c2cc(NC(=O)Nc3cc(F)ccc3F)ccc2OC[C@@H](C)N(C)C[C@H]1C | 0 | 3.3 | -1.4 | -1 | i |
| Cc1noc(C)c1NC(=O)N(C)C[C@H]1OCCCC[C@@H](C)Oc2ccc(NC(=O)NC(C)C)cc2C(=O)N([C@H](C)CO)C[C@H]1C | 8 | -4.6 | -0.8 | 3 | i |
| C[C@@H]1CN([C@@H](C)CO)C(=O)c2cc(NS(=O)(=O)c3ccc(F)cc3)ccc2O[C@@H]1CN(C)Cc1ccncc1 | -2 | -1.6 | -0.3 | 1 | i |
| CO[C@@H](CN(C)S(=O)(=O)c1cn(C)cn1)[C@@H](C)CN(C(=O)Nc1ccc(F)cc1)[C@H](C)CO | -3 | -1.9 | -1.2 | -2 | i |
| C[C@H](CO)N1C[C@H](C)[C@H](CN(C)C)Oc2ccc(NC(=O)CCCCCC(=O)Nc3ccccc3N)cc2CC1=O | -1 | 2.7 | -3.1 | 4 | i |
| O=C(c1ccccc1)N1C[C@H]2[C@@H](c3ccccc31)[C@H](CO)N2S(=O)(=O)c1ccccc1 | -17 | -1.4 | -1.2 | -4 | i |
| Cc1noc(C)c1NC(=O)Nc1ccc2c(c1)C(=O)N([C@@H](C)CO)C[C@@H](C)[C@H](CN(C)Cc1ccc(Cl)c(Cl)c1)O2 | -4 | 2.0 | 1.4 | -2 | i |
| COc1cc(/C=N/Nc2nc(C)cc(C)n2)ccc1O | 4 | 0.0 | -1.0 | -1 | i |
| C[C@H]1CN([C@@H](C)CO)C(=O)c2cccc(NC(=O)c3cnccn3)c2O[C@@H]1CN(C)C(=O)Nc1ccccc1 | 9 | -2.7 | -2.3 | 4 | i |
| COc1ncc(-c2ccc(N3C(c4ccsc4)=Cc4ccc(F)cc4C3CC(=O)c3ccco3)cc2)cn1 (centres undefined) | 4 | 7.1 | 12 | -17 | i |
| CC(C)NC(=O)N[C@@H]1CC[C@H](CCNS(=O)(=O)Cc2ccccc2)O[C@@H]1CO | -2 | -0.5 | 0.0 | 1 | i |
| COc1ccc(CC(N)c2csc(NC(=O)Nc3ccccc3C(C)(C)C)n2)cc1 (centres undefined) | -49 | 13 | 37 | -20 | i |
| COCC(=O)N1[C@@H](CO)[C@@H](c2ccc(-c3cccc(F)c3)cc2)C12CN(C(=O)C1CC1)C2 | -13 | 0.2 | 2.8 | -3 | i |

Part of the list above in order of formula weight, rising:
| structure | rRNA inh HTS OD600 | AF4-AF9 inh | rRNA inh HTS RFP | rRNA inh HTS | FGF22 binding |
| --- | --- | --- | --- | --- | --- |
| COc1cc(/C=N/Nc2nc(C)cc(C)n2)ccc1O | 4 | 0.0 | -1.0 | -1 | i |
| COc1cc(-c2cc(NC=O)c3ncc(-c4ccc(C(C)=O)cc4)n3c2)ccc1O | -2 | 2.7 | 4.3 | 3 | . |
| O=C(Nc1nnc([C@@H]2O[C@H](CO)[C@@H](O)[C@H]2O)s1)Nc1cccc2c1CCCC2 | 10 | -7.6 | -1.6 | 4 | i |
| CC(C)NC(=O)N[C@@H]1CC[C@H](CCNS(=O)(=O)Cc2ccccc2)O[C@@H]1CO | -2 | -0.5 | 0.0 | 1 | i |
| C[C@@H]1CN([C@H](C)CO)C(=O)Cc2cc(NC(=O)c3ccncc3)ccc2O[C@H]1CN(C)Cc1ccncc1 | 5 | -3.4 | -0.8 | 1 | i |
| COc1ncc(-c2ccc(N3C(c4ccsc4)=Cc4ccc(F)cc4C3CC(=O)c3ccco3)cc2)cn1 (centres undefined) | 4 | 7.1 | 12 | -17 | i |
| C[C@H]1CN([C@@H](C)CO)C(=O)c2cccc(NC(=O)c3cnccn3)c2O[C@@H]1CN(C)C(=O)Nc1ccccc1 | 9 | -2.7 | -2.3 | 4 | i |
| C[C@H](CO)N1C[C@H](C)[C@H](CN(C)C)Oc2ccc(NC(=O)CCCCCC(=O)Nc3ccccc3N)cc2CC1=O | -1 | 2.7 | -3.1 | 4 | i |
| Cc1noc(C)c1NC(=O)Nc1ccc2c(c1)C(=O)N([C@@H](C)CO)C[C@@H](C)[C@H](CN(C)Cc1ccc(Cl)c(Cl)c1)O2 | -4 | 2.0 | 1.4 | -2 | i |
| Cc1noc(C)c1NC(=O)N(C)C[C@H]1OCCCC[C@@H](C)Oc2ccc(NC(=O)NC(C)C)cc2C(=O)N([C@H](C)CO)C[C@H]1C | 8 | -4.6 | -0.8 | 3 | i |

The list continues:
| structure | rRNA inh HTS OD600 | AF4-AF9 inh | rRNA inh HTS RFP | rRNA inh HTS | FGF22 binding |
| --- | --- | --- | --- | --- | --- |
| COc1ccc(S(=O)(=O)N(C)C[C@@H]2Oc3c(NC(=O)c4cnccn4)cccc3C(=O)N([C@H](C)CO)C[C@@H]2C)cc1 | 3 | 0.5 | 0.0 | -2 | i |
| C[C@H]1CN([C@@H](C)CO)C(=O)c2cc(NC(=O)Nc3cccc4ccccc34)ccc2O[C@@H]1CN(C)Cc1ccc(Oc2ccccc2)cc1 | 4 | 4.4 | 2.0 | 5 | i |
| CC(=O)c1cccc(-c2ccnc3c2CC(C(=O)N2CCN(C)CC2)O3)c1 (centres undefined) | 16 | -0.5 | -3.2 | 7 | i |
| C[C@H](CO)N1C[C@H](C)[C@@H](CN(C)C(=O)Nc2ccc3c(c2)OCO3)Oc2ccc(NC(=O)NC3CCCCC3)cc2CC1=O | -3 | 0.8 | -2.7 | -3 | i |
| COc1ccc(S(=O)(=O)N[C@H]2CC[C@H](CCNC(=O)c3ccccc3F)O[C@H]2CO)cc1 | -8 | -0.8 | -4.7 | -6 | i |
| CCCNC(=O)N1CC2(C1)CN(C(=O)c1ccccc1)[C@H](CO)c1[nH]c3cc(OC)ccc3c12 | 16 | 1.3 | -2.4 | 5 | i |
| CCC1=C(NCc2ccccc2)COC1=O | 17 | -0.8 | -7.1 | 4 | i |
| CO[C@@H]1CN(C)C(=O)c2cc(NS(=O)(=O)c3ccccc3)ccc2OC[C@H](C)N(Cc2ccccn2)C[C@@H]1C | -10 | -0.4 | 2.1 | -1 | i |
| O=[N+]([O-])c1ccc(Oc2cccnc2)c([N+](=O)[O-])c1 | 10 | 1.0 | -0.4 | 5 | i |
| C[C@@H]1CN([C@H](C)CO)C(=O)c2cc(NC(=O)Nc3ccc(F)cc3)ccc2O[C@@H](C)CCCCO[C@H]1CN(C)C(=O)Nc1ccc(C(F)(F)F)cc1 | 4 | 0.6 | -1.1 | 6 | i |
